HSD17B inh: blocks hydroxysteroid 17-beta dehydrogenase activity. actives 7.6% (n = 75,000). Potency, µM (highest dose often 57.1 µM), for the others: at the highest dose activity change, negative = inhibition, actives largely listed as inhibitors. recombinant HSD17B10, NADH fluorescence kinetic; many of its hits are not listed in these tables. Q99714. AID 893; active = well fitted inhibition curve with a large enough effect; inconclusive = small, poorly fitted or top-dose-only effect; inactive = no such curve, though single readings can be large or run the other way;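 also: the protocol describes HADH2 (HSD17B10) and not the HSD17B4 of the title; nearly all actives have a fitted effect of over 70% in size; most hits overshoot -100% by far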
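Enzyme plus compound, 15 min room temperature; substrate mix added (NAD+ 1 mM, beta-hydroxybutyryl-CoA 90 uM final); plates read kinetically for NADH fluorescence. HADH2 was His-tagged, E. coli-derived, 20 nM.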
An asterisk follows results filed as active; ? = inconclusive; [ ] = dose if it differs, or a comment. % is scaled to controls: 0 for no effect and ±100 for the full control effect; potency is read from the fitted curve at half-maximal effect. These rows are one share of the data (hit frequency here may not be typical).

Start of the listing, in advance (two entries):
SMILES | HSD17B inh
CC(=O)c1cc(C)oc1C | -2%
O=C(CCN1C(=O)C2C3C=CC(C3)C2C1=O)NC1CCCc2ccccc21 (centres undefined) | -4%

The list itself (from the top)
SMILES | HSD17B inh
CC(=O)c1cc(C)oc1C | -2%
O=C(CCN1C(=O)C2C3C=CC(C3)C2C1=O)NC1CCCc2ccccc21 (centres undefined) | -4%
CC(C)c1cc(C(F)(F)F)nc(NNc2nc(C(C)C)cc(C(F)(F)F)n2)n1 | -1%[11.4 µM]
CC(=O)Nc1ccc2c(c1)CCC2=O | -4%
C/C(CCC(=O)OC[C@@H]1O[C@H](C#Cc2ccccc2)C=C[C@@H]1Oc1ccc(C)cc1)=N/OC[C@@H](O)[C@H]1O[C@H]2OC(C)(C)O[C@H]2[C@@H]1O | 0%[11.4 µM]
CN1CCN(S(=O)(=O)c2ccc(NC(=O)c3cccc(S(=O)(=O)N4CCCC4)c3)cc2)CC1 | -20%
CC1CCc2sc3ncn4nc(C(=O)NCc5ccco5)nc4c3c2C1 (centres undefined) | -15%
Cn1c(=Nc2ccc(N3CCOCC3)cc2)ccc2ccccc21 | 4%
O=C1CCCc2sc3c(c2N1)CCCCC3 | -3%
CC(=O)OCC1OC(c2ccc3c(c2)OCO3)C=CC1OC(C)=O (centres undefined) | 0%[11.4 µM]
O=C(c1ccco1)N1CCN(S(=O)(=O)c2ccc(C3CCCCC3)cc2)CC1 | 0%
Cc1nc2ccccc2c2oc(C(=O)N3CCC(N4CCCCC4)CC3)cc12 | 10%
O=S(=O)(c1cccc(-c2nnco2)c1)N1CCCC1 | 9%
CCCNS(=O)(=O)c1cc(Br)cc2c1N(C(=O)CC)CC2 | 5%
Cn1c(=O)c2c(ncn2CC(=O)N2CCc3ccccc3C2)n(C)c1=O | -5%
O=C(NCC1OCCc2ccccc21)c1ccco1 (centres undefined) | 3%
COc1ccccc1CNC(=O)CN(c1ccc(C)cc1)S(=O)(=O)c1c(C)nn(C)c1C | -2%
CCOc1cc(C)c(C(C)C)cc1S(=O)(=O)N1CCN(C)CC1 | ?
CCn1c(=O)n(CC(=O)Nc2cccc(OC)c2)c(=O)c2ccccc21 | -10%
COC(=O)[C@@H]1C[C@@H]2CC[C@@H](O)C[C@@H]2N1CC1CCCCC1 | 5%
CCc1nnc(NC(=O)CSc2nc3c(c(=O)n2C)SC(C)C3)s1 (centres undefined) | 4%
COc1ccc(OC)c(Nc2nc(-c3ccc(O)c(O)c3)cs2)c1 | 7.9µM*
COCCCNC(=O)COc1cc(C)c(Cl)c(C)c1 | 0%
COc1cc(C(C)=O)cc(OC)c1O | -13%
COc1cc2c(cc1OC)CN(CC(=O)Nc1cccc(C)c1)CC2 | 1%

(more compounds)
SMILES | HSD17B inh
O=C(NCCCNCCCNC(=O)c1ccccn1)c1ccccn1 | 0%
CC(=O)OC1CC2C(C)(C)C(=O)CC[C@]2(C)C2CC[C@]3(C)C(=CC(=O)OC3c3ccoc3)[C@]12C (some centres undefined) | 1%
CCOC(=O)CC(=O)CSc1nc2sc(C)cc2c(=O)n1Cc1ccco1 | -27%
CCC[C@@H]1C[C@@]1(CCC)[C@@H](NC(=O)Oc1ccccc1)c1ccc(C(=O)OC)cc1 | -15%
CC1CN(CCc2ccccc2)c2nc3c(c(=O)[nH]c(=O)n3C)n2C1 (centres undefined) | 5%
Cc1ccc(C)c(CSc2nnc(-c3cccnc3)n2N)c1 | 105%[activator]
CC(C)(C)c1cc2c(O)c(c1)Cc1cc(C(C)(C)C)cc(c1O)Cc1cc(C(C)(C)C)cc(c1O)Cc1cc(C(C)(C)C)cc(c1O)Cc1cc(C(C)(C)C)cc(c1O)Cc1cc(C(C)(C)C)cc(c1O)Cc1cc(C(C)(C)C)cc(c1O)Cc1cc(C(C)(C)C)cc(c1O)C2 | 4%[11.4 µM]
Cc1oc(-c2cccc(Cl)c2)nc1CN1CCC(C(=O)NCc2ccco2)CC1 | -5%
O=C(CCN1C(=O)C2CC=C(Cl)CC2C1=O)NC1CCCCC1 (centres undefined) | -17%
CN1CCN(C(=O)CCn2nc(-c3ccccc3)c3ccccc3c2=O)CC1 | 10%
COC(=O)c1sc(NC(=O)CSc2nc3cccnc3n2C2CCCCC2)nc1C | -9%
Cn1c(=O)c2c(O)cc(=O)n(-c3ccccc3)c2n(C)c1=O | 5%
Cc1cc2ncn(C(=O)c3ccc4c(c3)OCO4)c2cc1C | -6%
Cc1ccc(C)c(N2CCN(C(=O)c3cc4sccc4n3C)CC2)c1 | -1%
Cc1ccc(-n2c(CSc3nc(C)cc(C)n3)nnc2SCC(=O)Nc2nccs2)cc1 | -2%
O=C(COC(=O)CCc1ccc(S(=O)(=O)N2CCOCC2)cc1)Nc1ccc(Cl)cn1 | 2%
Clc1ccc(OCc2nnc(SCc3nc4ccccc4[nH]3)n2Cc2ccco2)cc1 | ?
Fc1ccc(C2CC(c3ccccc3)n3ncnc3N2)cc1 (centres undefined) | 3%
CC(C)(C)c1ccc(-c2cc(N)n[nH]2)cc1 | -7%
C1CSC2(N1)C1CC3CC(C1)CC2C3 (centres undefined) | 7%
CC(=O)c1cccc(NC(=O)CN2C(=O)COc3ccc(Cl)cc32)c1 | -2%
CCC(C(=O)NCc1ccco1)n1nc(-c2ccc(OC)cc2)ccc1=O (centres undefined) | ?
COCC(=O)N1CCC2(CCN(Cc3ccccc3OC)CC2)CC1 | -2%
O=C(CSc1nnnn1C1CCCCC1)Nc1ccc2c(c1)OCO2 | 9%
Cc1ccc(S(=O)(=O)N2CCOCC2)cc1C(=O)NC1CCCCC1 | 3%

(continued)
SMILES | HSD17B inh
Cc1ccc(C)n1-c1ccc(C(=O)NCC2CCCO2)cc1 (centres undefined) | -9%
CN(C)S(=O)(=O)c1ccc(S(=O)(=O)N2CCN(CCC#N)CC2)cc1 | 0%
COc1cccc(-c2cc(C(F)(F)F)nc(N3CCC(C)CC3)n2)c1 | ?
Cn1c(SCC(=O)Nc2ccc(F)cc2F)nnc1-c1cccnc1 | 0%
Cc1nc(NC(=O)C23CCC(C)(C(=O)O2)C3(C)C)sc1C (centres undefined) | 5%
Cc1ccc(C)c(S(=O)(=O)N2CCN(CC(=O)Nc3cc(C)on3)CC2)c1 | 8%
CC(C)(C)C1CCC2(CC1)C(C#N)=C(SCC(=O)NC1CCCCC1)NC(=O)C2C#N (centres undefined) | -6%
CN(C)S(=O)(=O)c1nc(Cl)c2[nH]cnc2n1 | 1%[11.4 µM]
CCc1cccc(NS(=O)(=O)c2ccc3c(c2)oc(=O)n3C)c1 | 5%
O=S(=O)(NCC1CCCO1)c1ccc(Br)s1 (centres undefined) | 2%
CCOCCc1nnc(NC(=O)CN2C(=O)c3ccccc3C2=O)s1 | 2%
CCC(=O)c1ccc(OCC(=O)O)cc1 | 3%
COc1cc(NC(=O)C2CCCO2)c(OC)cc1NC(=O)c1ccccc1 (centres undefined) | -5%
O=C(NCCN1CCOCC1)c1ccccc1Oc1ccccc1 | 6%
CC(C)(C)n1ncc2c(=O)n(CC(=O)NCc3ccco3)cnc21 | -3%
COc1ccc(N2CCCn3c2nc2c3c(=O)n(CCN3CCOCC3)c(=O)n2C)cc1 | 8%
CCc1nc2sc3ccccc3c(=O)c2c(=O)n1Cc1ccco1 | ?
O=C(Cc1coc2ccc3ccccc3c12)N1CCN(c2ncccn2)CC1 | ?
Fc1ccc(-c2nc3n(c2-c2ccncc2)CCS3)cc1 | ?
COCc1cc(C)n(CC(=O)Nc2ccccc2OC)c(=O)c1C#N | 25µM*
CCN(CC)C(=O)COc1ccc(-c2ccccc2)cc1 | 0%
CCc1nc2ccccc2n1Cc1cc(=O)n2cc(C)ccc2n1 | 32µM*
Cc1nc2nc(COc3ccccc3)[nH]n2c(=O)c1Cl | 6%
O=c1[nH]c(N2CCCCC2)nc2c1CCCC2 | 6%
O=C(OC1CCCCC1)c1ccc(NC(=O)c2ccco2)cc1 | -6%

Further entries
SMILES | HSD17B inh
Cc1ccc2c(CN3CCN(S(=O)(=O)c4ccc5c(c4)OCCO5)CC3)cc(=O)oc2c1C | -8%
CN(C(=O)c1ccno1)c1nnc(-c2cnccn2)s1 | -23%
O=C(CCCc1ccccc1)NCc1cccnc1 | -1%
Clc1ccccc1-c1cc(NCc2ccccc2)ncn1 | -25%
COc1ccc(C(c2nnnn2CC2CCCO2)N2CCN(c3ccccc3)CC2)cc1 (centres undefined) | 6%
CC(C)(C)NC(=O)C(c1ccco1)N(C(=O)Cn1nnc(-c2ccc(F)cc2)n1)c1cccc(F)c1 (centres undefined) | 12%
CCn1c(SCC(=O)NCCOC)nc2sc(C)c(C)c2c1=O | -4%
O=C(NCCc1ccccc1)c1cc(-c2ccc3c(c2)OCO3)on1 | -2%
CCC/C=C(\CCC)C(NS(=O)(=O)c1cccs1)c1ccc(C(=O)OC)cc1 (centres undefined) | 7%
Cc1cccc2cc3c(NC(=O)c4ccccn4)nn(C)c3nc12 | 6%
COC(=O)c1cc(-c2cccc(OC)c2)n[nH]1 | 5%
O=C(c1ccco1)N1CCN=C1SCc1cccc(F)c1 | 4%
CC(C)NC(=O)N1CC[C@@]2(CCCN(C(=O)c3ccco3)C2)C1 | 5%
O=C(c1ccncc1)N1CCC2(CC1)CCN(c1ccncc1)CC2 | 2%
N#Cc1ccc(C23CC4(C2)[C@H](CN(Cc2ccc(-c5ccccc5)cc2)[C@@H]4c2ccccc2)C3c2ccc(C(F)(F)F)cc2)cc1 (some centres undefined) | -2%
O=C(O)Cn1c(-c2ccccc2)nc2ccccc21 | ?
COC1(OC)N=C(N)C2(C#N)C(c3ccc4c(c3)OCO4)C12C#N (centres undefined) | -13%
Cc1ccc2nc(SCc3nnc(-c4cccs4)o3)[nH]c2c1 | -4%
CCN1C(=O)c2cccc3c(NC(=O)C4CCCCC4)ccc1c23 | -3%
CCCCOc1ccc(NC(=O)c2cnc(C)cn2)cc1 | ?
CCCn1c(=O)c2ccccc2n2c(SCC(=O)Nc3cc(C)on3)nnc12 | 6%
CN(C)S(=O)(=O)c1ccccc1C#N | 0%
O=C(CCc1ccccc1)Nc1ncc2c(n1)CCCC2=O | 2%
O=C(Nc1cc(C(F)(F)F)ccc1Cl)c1cc(C2CC2)on1 | -19%
CCCC(=O)Nc1nnc(-c2cccc(OCC)c2)s1 | 20µM*

3 records drawn at random from those above:
SMILES | HSD17B inh
CCCNS(=O)(=O)c1cc(Br)cc2c1N(C(=O)CC)CC2 | 5%
CC(=O)Nc1ccc2c(c1)CCC2=O | -4%
CC(C)NC(=O)N1CC[C@@]2(CCCN(C(=O)c3ccco3)C2)C1 | 5%

The listing continues.
SMILES | HSD17B inh
CCOC(=O)c1oc2ccccc2c1NC(=O)COC | 1%
CC(C)c1[nH]nc2c1C(c1cccc(OC(=O)N3CCOCC3)c1)C(C#N)=C(N)O2 (centres undefined) | 0%
N#C/C(=C\c1ccc(O)c(O)c1)C(=O)OCCc1cccs1 | 16µM*
Cc1cc(C)nc(SCCc2cccc[n+]2C)n1 | -4%[11.4 µM]
C#C[C@H](N)CCC(=O)O | -4%
COC(=O)Cn1c(=NC(=O)CSCC(=O)NC2CCCCC2)sc2cc(OC)ccc21 | 25µM*
O=C(c1ccccc1)N1CCN(C2CC(=O)N(CCc3ccccc3)C2=O)CC1 (centres undefined) | 1%
Cc1ccc(-n2nc3c(c2NC(=O)c2ccc4c(c2)OCO4)CS(=O)C3)cc1 (centres undefined) | ?
Cc1c(C)c2cc(Cl)c(OCc3nn[nH]n3)cc2oc1=O | 32µM*
CCc1sc(C(=O)NC2CCN(C)CC2)cc1Br | -2%
Cc1cccc(-n2c(SCC(=O)Nc3nonc3C)nnc2-c2ccoc2C)c1 | ?
O=C(CSc1nnc(C2COc3ccccc3O2)o1)N1CCCCC1 (centres undefined) | 3%
c1ccc(-c2cc(N3CCOCC3)nc(-c3ccccc3)n2)cc1 | ?
CN(C)CCCN1c2ccccc2Sc2cnccc21 | 1%[11.4 µM]
CN1CCC2(CC1)CCN(C(=O)c1ccncc1)CC2 | 2%
Cc1cccc2cc(C(c3nnnn3C3CCCC3)N3CCOCC3)c(=O)[nH]c12 (centres undefined) | ?
O=C1CC(c2ccccc2)C(C(=O)O)N1 (centres undefined) | 10%
CCOc1ccccc1NC(=O)CSc1nnc(-c2cnccn2)n1CC | 9%
CC(=O)c1cc2c(cc1NC(=O)CN1CCN(c3cccc(C(F)(F)F)c3)CC1)OCO2 | 111%[activator]
O=C(O)c1cc(C(F)(F)F)nc2c(C(F)(F)F)cccc12 | 2%
CC1CCCCN1CCCNC(=O)c1ccc(Cc2nc3ccccc3[nH]2)cc1 (centres undefined) | 9%
O=C(NCc1ccccc1)N(Cc1cc2cc3c(cc2[nH]c1=O)OCO3)CC1CCCO1 (centres undefined) | 25µM*
CCOC(=O)C1=C(O)/C(=C/N(C)C)N=C1C | -5%
COc1cc(C2C(C(=O)c3ccc(C)o3)=C(O)C(=O)N2c2cc(C)on2)ccc1O (centres undefined) | -2%
CCOC(=O)C(C(=O)OCC)[C@@H]1CS(=O)(=O)C[C@H]1C(C(=O)OCC)C(=O)OCC | 7%

Carrying on.
SMILES | HSD17B inh
COc1ccc2[nH]c(=O)c(CN(C(=O)c3ccccn3)c3ccccc3)cc2c1 | -15%
C=CCN1C(=O)/C(=C2/Sc3ccccc3N2C)SC1=Nc1c(C)n[nH]c1C | -4%
CCCc1cc(C(N)=O)c(NC(=O)c2cc(C)on2)s1 | -23%
CCOC(=O)c1c(C)nc2ccccn12 | 8%

Compound activity from PubChem.
